Compound activity: PubChem BioAssay, several laboratories
LANA-H2B inh: blocks KSHV LANA binding to histone H2A/H2B | inhibition, % (concentration not given with the values) | hit rate 0.6% among 320,000 | cell-free LANA-H2A/H2B peptide, fluorescence polarization | Q9QR71; in the data active = inhibition mostly above about 10%, no sharp cut-off; inactive = mostly below about 6.7%;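 also: stock transfer was 7.5 nL into about 10 µL; 0% = median of vehicle wells and 100% = median of positive control wells; one replicate is shown; the record names a cut of 25% in any replicate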
ALR H2O2 inh: inhibitors of human sulfhydryl oxidase ALR. P55789. purified ALR, DTT oxidation, H2O2 HRP-luminol luminescence. hit rate 3.8% among 290,000. AID 485317. inhibition, % (concentration not given with the values);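 active = mean and each replicate at 75% or more; inconclusive = only one of the two met; inactive = neither met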;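 also: stock transfer was 7.5 nL into about 7.5 µL; 0% = neutral wells and 100% = wells with inactivated enzyme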
Target sequence (P55789 whole entry, looked up): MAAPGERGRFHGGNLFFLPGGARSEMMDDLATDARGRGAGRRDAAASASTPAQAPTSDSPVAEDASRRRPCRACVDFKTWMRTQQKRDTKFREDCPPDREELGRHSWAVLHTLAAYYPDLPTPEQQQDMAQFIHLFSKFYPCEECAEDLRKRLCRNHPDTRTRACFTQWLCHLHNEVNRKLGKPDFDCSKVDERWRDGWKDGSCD
Calb FLC: affects C. albicans growth with fluconazole; C. albicans CaCi-2 (fluconazole-resistant clinical isolate) + fluconazole, Alamar Blue growth, 48 h; hit rate 0.57% among 300,000; growth inhibition, % (no concentration beside the values);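 active = most replicates above 75%; inconclusive = exactly half above 75%; inactive = most below 75%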;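 also: all wells also contain fluconazole at 8 µg/ml as a sub-toxic cotreatment; 0% = median of DMSO wells and 100% = median of geldanamycin control wells; wells of about 8 µL received 7.5 nL stock; the first replicate is given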
RanGTP-Impb inh: disruptors of Ran-importin-beta complex formation – biochemical, FRET, CFP-Ran, YFP-importin-beta, homogeneous, primary screen; hit rate 1.1% among 300,000; inhibition, % (test concentration not listed); cell-free CFP-Ran/YFP-importin-beta FRET ratio;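 active = most replicates above 15%; inconclusive = exactly half above 15%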;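 also: 0% = DMSO wells and 100% = Ran loaded with GDP instead of GTP; wells of about 40 µL received 100 nL stock; the first replicate is given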
HNF4A DNA FP: change in binding of human HNF4 alpha to DNA | P41235 | HNF4a-FITC DNA binding, fluorescence polarization, 1 h | activity change, % at 10 µM | hit rate 0.3% among 360,000; in the data active = activity change above about 30%, passing the limit was not always enough;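 also: controls were the assay level and a saturating level of protein; the project sought stronger binding though the title names inhibitors; some compounds called inactive have numbers as strong as hits; positive values seem to mean higher polarization but the record does not say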
Target sequence (P41235 whole entry, looked up): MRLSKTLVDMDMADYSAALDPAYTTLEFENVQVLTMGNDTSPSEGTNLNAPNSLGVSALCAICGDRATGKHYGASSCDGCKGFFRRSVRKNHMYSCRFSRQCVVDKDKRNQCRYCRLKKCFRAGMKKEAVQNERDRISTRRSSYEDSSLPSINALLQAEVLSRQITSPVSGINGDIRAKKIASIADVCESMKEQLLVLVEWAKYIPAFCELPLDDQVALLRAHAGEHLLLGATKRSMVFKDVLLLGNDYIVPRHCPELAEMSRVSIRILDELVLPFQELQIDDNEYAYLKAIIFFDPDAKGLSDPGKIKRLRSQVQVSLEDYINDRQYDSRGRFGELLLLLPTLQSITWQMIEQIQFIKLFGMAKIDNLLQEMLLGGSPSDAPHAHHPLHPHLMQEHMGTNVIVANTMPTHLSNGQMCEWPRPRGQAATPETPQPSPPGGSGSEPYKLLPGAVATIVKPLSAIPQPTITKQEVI
B2AR ag: agonists of human beta-2 adrenergic receptor inducing internalization; Am2.2-beta2AR cells, FAP receptor internalization, flow cytometry; reference of the scale not given here; hit rate 0.43% among 340,000; P07550; response, % (concentration not given with the values); AID 504454;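 active = response above a set limit, near 3 SD of response in nonfluorescent compounds, cut at about 42% in these data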;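 also: stock transfer was 100 nL into about 11 µL; a reference agonist was the positive control; negative values mostly stem from fluorescent compounds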
Target sequence (P07550 whole entry, looked up): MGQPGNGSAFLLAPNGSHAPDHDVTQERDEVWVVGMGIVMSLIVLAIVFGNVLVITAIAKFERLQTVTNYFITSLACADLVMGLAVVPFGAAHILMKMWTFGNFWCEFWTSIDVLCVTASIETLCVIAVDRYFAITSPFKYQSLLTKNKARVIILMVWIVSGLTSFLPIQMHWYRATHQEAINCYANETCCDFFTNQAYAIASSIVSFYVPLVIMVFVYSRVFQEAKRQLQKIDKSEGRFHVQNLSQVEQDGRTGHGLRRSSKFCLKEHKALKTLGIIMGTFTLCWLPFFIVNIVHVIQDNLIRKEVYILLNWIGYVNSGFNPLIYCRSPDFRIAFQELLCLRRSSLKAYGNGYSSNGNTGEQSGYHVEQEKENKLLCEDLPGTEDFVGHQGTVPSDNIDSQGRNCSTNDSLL
Vif TR-FRET: inhibitors of Vif binding to APOBEC3G peptide, primary screen, biochemical, TR-FRET, GST-Vif 1-94, biotin-A3G peptide, dose response retest (AID 1117319). TR-FRET GST-Vif / biotin-A3G peptide binding; higher % means a stronger effect; test concentration not given here; strong numbers were not always called active. one-dose inhibition, %; IC50 in µM for titrated hits. hit rate 0.57% among 260,000;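 active = above the screen mean plus three standard deviations and confirmed in dose response; inconclusive = results disagree or hit not tested in dose response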;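 also: Vif residues 1-94 fused to GST binding biotinylated APOBEC3G peptide 110-148; 0% = full assay without inhibitor and 100% = GST in place of GST-Vif; retest series ran down from 100 µM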
* = called active by the depositor; ? = inconclusive; nt = no result given; & = joins results of further samples.

no.	Molecule	LANA-H2B inh	ALR H2O2 inh	Calb FLC	RanGTP-Impb inh	HNF4A DNA FP	B2AR ag	Vif TR-FRET
1	Cc1cccc(-n2c(O)c(C=Nc3ccc(O)cc3)c3ccccc3c2=O)n1	2.5	99*	21	6.1	0.5	-10	-1%
2	COC(=O)C1CN(C(=O)C(C)Oc2ccccc2F)c2ccccc2O1 (configuration not stated)	1.8	-3	-3	2.1	0.4	6	-3%
3	COC(=O)[C@@H](CC(C)C)N(Cc1ccccc1)S(=O)(=O)N(Cc1ccccc1)[C@@H](CC(C)C)C(=O)OC	-25	3	nt	nt	0.2	9	nt
4	CCN(CC)S(=O)(=O)c1ccc(N=Cc2c(C)c(C#N)c(=O)n(C)c2O)cc1	1.4	nt	4	-0.9	-2.9	6	nt
5	Cc1ccc(C2=NOC(C)(c3sc(-c4ccc(Cl)cc4)nc3C)C2)cc1 (configuration not stated)	2.9	9	-3	0.9	0.7	-3	nt
6	CSCCC(NC(=O)c1ccccc1Cl)C(=O)N1CCN(c2ccccn2)CC1 (configuration not stated)	1.1	nt	-27	-1.9	-4.7	-7	-6%
7	Cc1nc2ccccc2c2c1C(=O)N(c1cccc(C(=O)O)c1)C2=O	0.4	-22	-1	?	-0.8	-10	6%
8	COc1ccc(NC(=O)c2cc(Cl)ccc2NC(=O)c2ccco2)c(OC)c1	-6.1	-9	-3	4.7	-3.8	21	23%
9	COc1ccccc1[C@@H]1C(c2ccccc2)=NN(c2ccc(Br)cc2)[C@H]1C(=O)N1CCOC1=O	nt	nt	nt	nt	2.1	-4	-7%
10	COc1ccc2ccccc2c1/C=N/NC(=S)NCCN1CCOCC1	-0.3	nt	12	-3.6	4.9	6	nt

(listing goes on)
no.	Molecule	LANA-H2B inh	ALR H2O2 inh	Calb FLC	RanGTP-Impb inh	HNF4A DNA FP	B2AR ag	Vif TR-FRET
11	CSc1cc(C)n(-c2ccccc2C)c(=S)c1C(C)=O	1.1	-5	-3	-1.4	1.5	0	18%
12	CC(=O)c1sc(NC(=O)CCOc2ccccc2)nc1C	2.8	-10	5	0.3	1.0	0	-3%
13	Cc1c(C(=O)OCC(=O)NCC2CCCO2)cccc1[N+](=O)[O-] (configuration not stated)	1.6	-21	-7	0.1	-1.5	-6	31%
14	Cn1nc(C(=O)Nc2cc(Cl)ccc2N2CCCC2)c2ccccc2c1=O	48*	nt	nt	nt	10	5	-8%
15	O=c1ccc(C(F)(F)F)cn1Cc1cc(=O)n2cc(Br)ccc2n1	-2.4	-11	16	3.8	-5.2	-16	9%
16	Cn1c(=O)c2c(SCC(=O)Nc3ccc4c(c3)OCCO4)nc(CC(C)(C)C)nc2n(C)c1=O	-9.8	17	1	-3.0	-8.9	-6	-1%
17	O=C(CCCn1cc([N+](=O)[O-])cn1)Nc1ccc2c(c1)OCO2	3.9	nt	-4	4.2	-0.4	-1	nt
18	COc1ccc(Cl)cc1NC(=O)c1oc(C)nc1C	1.8	0	11	1.3	5.4	-4	17%
19	COc1ccc(N(CC(=O)NCCSc2ccccc2)S(C)(=O)=O)cc1	1.4	-8	4	-0.1	2.3	-3	-7%
20	CCOc1ccc(C(=O)Nn2cnnc2)cc1	-0.7	0	3	0.0	1.9	-1	3%

Reformatted screen by screen: part of the list above.
13) Cc1c(C(=O)OCC(=O)NCC2CCCO2)cccc1[N+](=O)[O-] (configuration not stated)
14) Cn1nc(C(=O)Nc2cc(Cl)ccc2N2CCCC2)c2ccccc2c1=O
15) O=c1ccc(C(F)(F)F)cn1Cc1cc(=O)n2cc(Br)ccc2n1
16) Cn1c(=O)c2c(SCC(=O)Nc3ccc4c(c3)OCCO4)nc(CC(C)(C)C)nc2n(C)c1=O
screen / no.	13	14	15	16
LANA-H2B inh	1.6	48*	-2.4	-9.8
ALR H2O2 inh	-21	nt	-11	17
Calb FLC	-7	nt	16	1
RanGTP-Impb inh	0.1	nt	3.8	-3.0
HNF4A DNA FP	-1.5	10	-5.2	-8.9
B2AR ag	-6	5	-16	-6
Vif TR-FRET	31%	-8%	9%	-1%

Part of the list above, with values under each structure.
The line under a structure holds: LANA-H2B inh | ALR H2O2 inh | Calb FLC | RanGTP-Impb inh | HNF4A DNA FP | B2AR ag | Vif TR-FRET
13. Cc1c(C(=O)OCC(=O)NCC2CCCO2)cccc1[N+](=O)[O-] (configuration not stated)
 : 1.6 | -21 | -7 | 0.1 | -1.5 | -6 | 31%
19. COc1ccc(N(CC(=O)NCCSc2ccccc2)S(C)(=O)=O)cc1
 : 1.4 | -8 | 4 | -0.1 | 2.3 | -3 | -7%
18. COc1ccc(Cl)cc1NC(=O)c1oc(C)nc1C
 : 1.8 | 0 | 11 | 1.3 | 5.4 | -4 | 17%
17. O=C(CCCn1cc([N+](=O)[O-])cn1)Nc1ccc2c(c1)OCO2
 : 3.9 | nt | -4 | 4.2 | -0.4 | -1 | nt

Going on with the list.
no.	Molecule	LANA-H2B inh	ALR H2O2 inh	Calb FLC	RanGTP-Impb inh	HNF4A DNA FP	B2AR ag	Vif TR-FRET
21	CCOC(=O)C1(Cc2ccccc2C)CCCN(C(=O)CSC)C1 (configuration not stated)	-2.8	nt	-7	0.5	-1.1	-4	0%
22	CCOC(=O)CSc1nnc(-c2nnc(SCC(=O)OCC)n2CC)n1CC	-6.3	14	6	-2.2	-0.9	8	-4%
23	Cn1c(-c2ccco2)n[nH]c1=S	2.1	17	-16	2.4	2.8	11	10%
24	CCOC(=O)C1CCCN(CCC(=O)Nc2ccc(Br)c(C)c2)C1 (configuration not stated)	14	14	-46	-0.6	-2.3	9	3%
25	Cc1cccc(C)c1OC(=O)c1ccccc1	nt	nt	nt	nt	0.1	1	-2%
26	O=C(CN1C2CCCC1CC(NC(=O)c1ccccc1)C2)NC1CC1 (configuration not stated)	-5.0	-5	6	-3.9	1.7	-3	6%
27	Cc1ccccc1-c1noc(CCC(=O)NC2CCCCC2)n1	-4.6	nt	-21	-0.9	0.1	9	nt
28	O=C(Nc1ccccn1)C12CC3CC(CC(C3)C1)C2	-0.3	-5	-10	5.7	1.3	-10	2%
29	Fc1ccc(-c2cc(C(F)(F)F)nc(-n3cccn3)n2)cc1	3.6	nt	0	-0.8	-4.1	-10	22%
30	CN(C)c1ccc(C(=S)N2CCN(Cc3ccccc3)CC2)cc1	-0.6	66	-8	2.2	-1.5	7	-3%

(list continues)
no.	Molecule	LANA-H2B inh	ALR H2O2 inh	Calb FLC	RanGTP-Impb inh	HNF4A DNA FP	B2AR ag	Vif TR-FRET
31	COc1ccc(CCNC(=O)C2CCN(S(=O)(=O)N3CCCCC3)CC2)cc1OC	7.8	-12	-5	3.3	3.5	1	-1%
32	O=c1[nH]c2c(oc3ccccc32)c(=O)n1Cc1ccccc1	3.9	-13	0	0.8	-0.1	5	-4%
33	COc1ccc(/C=C/c2ccc3cccc(O)c3n2)cc1Br	-3.6	-2	1	-3.2	1.4	5	5%
34	CCN(c1ccccc1)S(=O)(=O)c1cccc(C(=O)NCC(c2ccco2)N2CCCC2)c1 (configuration not stated)	-0.7	-21	-27	?	2.1	-7	1%
35	COc1ccc(NC(=O)c2cccc(OS(=O)(=O)N(C)C)c2)cc1	-5.6	2	42	1.5	6.9	15	-2%
36	CC(=O)c1cccc(NC(=O)CN2C(=S)NC(C)(C)CC2C)c1 (configuration not stated)	-0.2	-3	-9	4.9	-0.7	-5	0%
37	O=C(NCC(=O)N1CCC2(CC1)NCCc1[nH]cnc12)c1ccc(Br)cc1	1.2	12	10	1.8	5.7	-1	nt
38	O=C(c1ccc(Cl)cc1)c1cnc(-c2ccccc2)s1	nt	nt	nt	nt	1.3	6	-3%
39	CC(OC(=O)c1ccccc1O)C(=O)Nc1cccc(Cl)c1 (configuration not stated)	-1.4	nt	-20	0.3	0.3	9	4%
40	COC(=O)c1ccc(COn2c(=O)c(C)[n+]([O-])c3ccccc32)cc1	-1.9	-1	7	-0.3	-3.5	6	-5%

Further compounds follow.
no.	Molecule	LANA-H2B inh	ALR H2O2 inh	Calb FLC	RanGTP-Impb inh	HNF4A DNA FP	B2AR ag	Vif TR-FRET
41	CC(C)CSc1ncnc2c1oc1nc3c(cc12)COC(C)(C)C3	-5.2	-3	18	2.2	0.5	3	-1%
42	O=C(CSc1nnc(-c2ccco2)o1)c1ccc(O)cc1O	1.2	-10	-9	8.7	1.7	18	1%
43	O=C(c1ccccc1F)N1C(=O)c2cccc3cccc1c23	1.1	-5	-2	-5.0	-1.9	-5	0%
44	O=C(COc1ccccc1)NCC(=O)N1CCCC(C(F)(F)F)C1 (configuration not stated)	nt	nt	nt	nt	3.3	-10	8%
45	N#Cc1cc2ccccc2nc1SCC(=O)Nc1ccccc1N1CCOCC1	3.8	-22	14	3.9	-4.8	-12	-7%&-24%
46	CCCc1[nH]c2ccc(C(=O)OC)cc2c1CCC	-1.2	0	-5	0.6	1.9	-2	nt
47	CCOC(=O)c1sc(=NC(=O)c2c(F)cccc2F)n(C)c1C	3.0	6	2	0.0	2.2	-2	nt
48	CCS(=O)(=O)c1ccc(C(=O)NC)c(Cl)c1Cl	-4.0	-5	-4	1.2	0.9	-40	-1%
49	COc1cc(OC)cc(C(=O)NC(C(=O)NNC(=O)c2cc(Cl)ccc2OC)C(C)C)c1 (configuration not stated)	3.3	-6	nt	nt	4.7	-5	-4%
50	Cc1ccc(Cn2c(C(C)Nc3nc(-c4ccc(F)cc4)cs3)nc3cc(Cl)c(Cl)cc32)cc1 (configuration not stated)	1.5	-3	-3	-6.1	3.7	9	nt

(cont.)
no.	Molecule	LANA-H2B inh	ALR H2O2 inh	Calb FLC	RanGTP-Impb inh	HNF4A DNA FP	B2AR ag	Vif TR-FRET
51	O=C(Nc1ccccc1F)c1ccncc1	11	-8	0	2.6	-0.6	11	?
52	COc1ccc(N2C(=O)C(CC(=O)Nc3ccccc3)N(Cc3ccc(OC)c(OC)c3)C2=O)cc1 (configuration not stated)	-0.9	-8	?	-1.4	-1.2	3	13%
53	Cc1ccc(CN(C(=O)c2cc(=O)c3cc(C)cc(C)c3o2)C2CCS(=O)(=O)C2)cc1 (configuration not stated)	-1.9	-3	10	0.0	4.4	-4	nt
54	O=C(NCCCN1CCOCC1)c1ccc2c(c1)N(Cc1ccc(F)cc1)CCS2	2.5	99*	6	-1.8	-0.5	1	nt
55	CO/N=C(/CS(=O)Cc1ccccc1Cl)c1ccc(Cl)cc1Cl (configuration not stated)	-8.7	-9	9	-3.3	1.7	-9	-3%
56	c1ccc(Nc2nc(N3CCNCC3)nc(N3CCOCC3)n2)cc1	0.5	-3	-1	-2.2	-3.4	10	?
57	Cc1c(CC(=O)NCCC(C)C)c(=O)oc2cc3c(cc12)CCC(C)(C)O3	0.2	-3	0	1.0	-1.4	4	-12%
58	Cc1ccc(-n2c(C)c(C)c3c(NCCO)ncnc32)cc1	-1.0	nt	-12	-3.6	5.6	-5	nt
59	O=C(c1ccco1)N1CCN(c2ccnc3cc(Cl)ccc23)CC1	0.9	-11	30	3.7	-2.1	-33	2%
60	O=C(COc1ccccc1)Nc1nnc(-c2ccccc2Cl)o1	0.9	-2	56	0.7	-4.6	8	-3%

(more compounds)
no.	Molecule	LANA-H2B inh	ALR H2O2 inh	Calb FLC	RanGTP-Impb inh	HNF4A DNA FP	B2AR ag	Vif TR-FRET
61	c1ccc(C[n+]2cccc(-c3ccccc3)c2)cc1	1.0	-23	-1	-0.7	-3.1	4	-8%
62	CCc1nn2c(=O)cc(COc3ccc(NC(=O)c4ccco4)cc3)nc2s1	-0.5	-4	9	?	-0.7	-32	-2%
63	O=C(O)CC1(CC(=O)N2CCN(CCO)CC2)CCCC1	3.0	-7	-3	0.4	0.1	2	-8%
64	CCC(C)NC(=O)CN(c1ccc(OC)cc1)S(=O)(=O)c1ccccc1 (configuration not stated)	5.1	-7	26	-1.7	1.8	10	1%
